Screens deposited in PubChem BioAssay by National Center for Advancing Translational Sciences (NCATS).
PINK1 expr mod = PINK1 expression modulation; PINK1 immunofluorescence, high-content cytometry, 24 h; Potency, µM (highest dose often 76.6 µM), inactives show at the top dose activation (PINK1 increase), most hits filed as activators; hit rate 0.2% among 410,000; active = well fitted activation curve with a large enough effect; inconclusive = small, poorly fitted or top-dose-only effect; inactive = flat fitted curve, though single readings scatter; cell line not stated here;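 note: potency is the fitted concentration of half-maximal effect; % of control where 0% means no effect; nearly all actives have a fitted effect of over 65% in size; a mitochondrial uncoupler was the plate control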
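Compound titrations (5 concentrations, 24 h) on a stable cell line; DMSO and CCCP controls. Endpoint: fixed-cell PINK1 immunofluorescence with mitochondrial, cell and nuclear markers, scanned by microplate cytometer.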
TRPML1 agonist = activates the human TRPML1 channel | hit rate 0.12% among 410,000 | AID 624414 | Q9GZU1 | activation, % (test concentration not listed) | TRPML1-expressing cells, Ca2+ dye fluorescence, FDSS; host cell line not named in the record; reference of the full effect not given here; in the data active = activation above about 50%; inconclusive = about 30% to 50%; inactive = below about 30%; note: 0% is about no effect; the text of the record puts the active cut at 80%
Target sequence (Q9GZU1 whole entry, looked up): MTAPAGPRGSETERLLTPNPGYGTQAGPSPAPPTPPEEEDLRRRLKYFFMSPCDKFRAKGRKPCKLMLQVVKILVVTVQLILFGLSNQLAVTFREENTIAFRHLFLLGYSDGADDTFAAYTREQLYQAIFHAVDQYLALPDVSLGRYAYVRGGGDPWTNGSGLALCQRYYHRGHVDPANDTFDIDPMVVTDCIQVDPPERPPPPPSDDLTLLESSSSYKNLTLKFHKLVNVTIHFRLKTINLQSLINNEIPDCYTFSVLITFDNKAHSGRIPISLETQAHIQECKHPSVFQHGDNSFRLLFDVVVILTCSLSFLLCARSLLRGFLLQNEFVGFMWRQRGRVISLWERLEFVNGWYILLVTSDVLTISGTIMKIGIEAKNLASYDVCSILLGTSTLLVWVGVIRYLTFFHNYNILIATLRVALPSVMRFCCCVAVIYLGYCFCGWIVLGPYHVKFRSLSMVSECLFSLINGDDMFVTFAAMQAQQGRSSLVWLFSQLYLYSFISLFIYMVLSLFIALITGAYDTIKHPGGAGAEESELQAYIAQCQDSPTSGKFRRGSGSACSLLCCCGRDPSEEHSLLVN
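TRPML1-DL cells, Tet-induced overnight (~16 h, 37 degrees C), loaded 45-90 min at room temperature with Ca8 no-wash calcium dye plus quencher. FDSS fluorescence: 10 s baseline, compound pin-transfer, 110 s agonist read, then EC80 54-4 (4uM final) and 110 s antagonist read.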
* hit, by the source's call; ? = inconclusive; & = joins results of further samples. These rows are one share of the data (hit frequency here may not be typical).

SMILES	PINK1 expr mod	TRPML1 agonist
Cc1cc(C)c(NC(=O)CN2C(=O)CCSc3ccc(S(=O)(=O)N4CCCC4)cc32)c(C)c1	0.1%	-1.1
COCCCn1c(=O)c2sccc2n2c(CCCC(=O)Nc3cccc(C(F)(F)F)c3)nnc12	-0.1%	1.1
O=C(Cn1cc(S(=O)(=O)Cc2cccc(Cl)c2)c2ccccc21)Nc1ccccc1Cl	-0.5%	3.8
O=C(NCc1cccc(Cl)c1)c1ccc(NC(=O)N2CC3CCCN3c3ccccc32)cc1 (stereo not drawn)	0.8%	-0.5
O=C1CC(c2cc(F)cc(F)c2)c2cc3c(cc2N1)OCO3 (stereo not drawn)	-0.3%	-0.9
CN(C(=O)C1CCN(c2ncnc3c2nc2n3CCCCC2)CC1)c1ccccc1F	21%	0.0
CCc1ccc(C2CC(=O)Nc3cc4c(cc32)OCO4)cc1 (stereo not drawn)	2.6%	2.5
CCOc1ccc(C2Nc3c(C)cccc3-c3cc(C)nn32)cc1 (stereo not drawn)	1.9%	-0.4
CCOC(=O)c1c(C)[nH]c(C)c1S(=O)(=O)N1CCN(c2ccccc2OC)CC1	7.9%	0.0
CCCN(Cc1cc2cc(C)ccc2[nH]c1=O)C(=O)c1cccc(Cl)c1	-1.1%	0.0
O=S(=O)(NCCCCNS(=O)(=O)c1cccc2cccnc12)c1cccc2cccnc12	0.4%	-0.5
O=C(CCSCc1ccc(Cl)cc1)N1CCN(c2ccccc2F)CC1	1.2%	1.0
Cc1ccc(-c2ccc(=O)n(CC(=O)Nc3ccc(C)cc3Cl)n2)cc1	-0.8%	-0.2
CCN(CC)c1ccc(NC(=O)Cn2c3ncccc3c(=O)n2-c2ccccc2)c(C)c1	0.1%	-0.4
CC1CCN(Cc2c(O)ccc3c(=O)c(Oc4ccccc4Cl)c(C(F)(F)F)oc23)CC1	2.8%	-0.7
Cc1cc(Nc2cccc(C(F)(F)F)c2)nc2ccc(NC(=O)c3cncc(Br)c3)cc12	?	1.7
CCN1CCC(N(Cc2ccc3c(c2)OCO3)C(=O)Nc2ccc(Br)c(C)c2)CC1	10%	3.1
Cc1ccc(N(C(=O)COc2ccccc2C)S(=O)(=O)c2ccc(Cl)cc2)cc1	?	0.2
COc1ccc(NC(=O)Cn2c(=O)c(-c3cc(C)ccc3NC(C)=O)nc3ccccc32)c(OC)c1	0.4%	-0.4
COc1cccc(C(=O)CC2(O)C(=O)Nc3ccc(Cl)cc32)c1 (stereo not drawn)	0.4%	-0.1
CCn1cnc2c(=O)oc3ccc(S(=O)(=O)N4CCN(c5cc(C)ccc5C)CC4)cc3c21	-1.4%	0.1
Cc1cc(C)cc(S(=O)(=O)c2cn(C)c3cc(N4CCCC4)c(F)cc3c2=O)c1	-1.0%	2.1
CCC(=O)N1CCc2cc(Br)cc(S(=O)(=O)N3CCCC(C(=O)NCc4ccccc4)C3)c21 (stereo not drawn)	0.7%	-0.6
CCOc1ccc(S(=O)(=O)N(CC(=O)NCCSCc2ccc(C)cc2)c2ccccc2)cc1	0.0%	-0.8
CCOC(=O)c1c(C)[nH]c(CCC(=O)NCCCN2CCN(c3cccc(Cl)c3)CC2)c1C	1.6%	1.5

Quoted at random: 2 entries already listed.
SMILES	PINK1 expr mod	TRPML1 agonist
CCN1CCC(N(Cc2ccc3c(c2)OCO3)C(=O)Nc2ccc(Br)c(C)c2)CC1	10%	3.1
CCN(CC)c1ccc(NC(=O)Cn2c3ncccc3c(=O)n2-c2ccccc2)c(C)c1	0.1%	-0.4

Further results follow.
SMILES	PINK1 expr mod	TRPML1 agonist
COc1cccc(-n2ccnc2SCC(=O)Nc2nc3ccc(C)cc3s2)c1	-0.7%	1.2
CC1=C(C(=O)Nc2ccccc2)C(c2ccccc2Cl)n2ncc(C(=O)Nc3cccc(C)c3)c2N1 (stereo not drawn)	?	3.4
Brc1ccc(/C=C2\C=Cc3ccccc32)cc1	1.7%	-0.7
CCOC(=O)C1CCN(C(=O)c2nn(-c3ccc(C)cc3)c(=O)n(C)c2=O)CC1	-1.2%	-0.9
COc1cc(NC(=O)C2CCN(C(=O)c3sc4nc[nH]c(=O)c4c3C)CC2)cc(OC)c1OC	2.5%	-0.5
Cc1ccc(S(=O)(=O)NCC(c2ccc(N(C)C)cc2)N2CCCC2)cc1 (stereo not drawn)	-0.6%	0.1
CCCCCCNc1ncnc2c1sc1nc(N3CCOCC3)c3c(c12)CCCC3	-5.9%	0.9
CC(NC(=O)COC(=O)c1ccco1)C12CC3CC(CC(C3)C1)C2 (stereo not drawn)	-0.5%	0.8
CCCCNC(=O)CN1C(=O)c2c(c3ccccc3n2C)C1c1ccc(OC)cc1 (stereo not drawn)	3.2%	2.7
CCOc1ccc(CNC(=O)C2=Cc3cccc(OC)c3OC2)cc1	-0.6%	-1.1
COc1cccc(CNC(=O)c2nn(C)c3c2CSc2ccccc2-3)c1	2.2%	2.8
CCc1ccc(CNC(=O)Cn2c(-c3cccs3)cc3cc(F)ccc32)cc1	17%	0.1
CCN(CC)c1ccc(C(=O)N2CCC(c3ccncc3)CC2)cc1	-0.4%	2.6
Cc1cc2nc(-c3ccc(Br)cc3)cc(C(F)(F)F)n2n1	-0.4%	0.6
COc1cccc(NC(=O)c2c(C)nn(-c3cccc(C)c3)c2-n2cccc2)c1	0.8%	2.1
CC(=O)N1CCCc2cc(S(=O)(=O)N3CCCC(C(=O)Nc4ccc(C)c(F)c4)C3)ccc21 (stereo not drawn)	0.2%	0.1
CCc1ccc(NC(=O)CSc2c(C)cnc3c2c(=O)n(C)c(=O)n3C)cc1	0.2%	-0.2
COc1ccc2c(c1)C/C(=C\c1ccc(N(C)C)cc1)C2=O	1.8%	72*
CCc1ccc(-n2c(=O)c3c4c(sc3n(Cc3ccccc3C#N)c2=O)CCCC4)cc1	2.3%	1.6
Cc1ccc(-c2nnc3c4ccccc4c(C)nn23)cc1NC(=O)c1ccccc1	2.5%	0.6
CC(C)c1ccc(NC(=O)Cn2c(=O)n(Cc3nc(-c4ccccc4)no3)c(=O)c3cc4c(cc32)OCO4)cc1	3.3%	0.5
CC1CCCCN1C(=O)Cn1ncc2c3ccccc3n(Cc3ccccc3F)c2c1=O (stereo not drawn)	2.2%	-0.5
CCn1c(=O)cc(OCC(=O)Nc2ccccc2Cl)c2ccccc21	1.4%	0.4
COc1ccc(C(=O)Nc2cc3c(cc2N2CCCC2)n(C)c(=O)c(=O)n3C)cc1OC	-2.2%	0.2
CCc1cccc(C)c1NC(=O)CSc1nc2ccccc2nc1Cc1ccccc1	-10%	2.8

Whole records, quoted from the list:
`CCc1ccc(CNC(=O)Cn2c(-c3cccs3)cc3cc(F)ccc32)cc1` is listed as PINK1 expr mod = 17%; TRPML1 agonist = 0.1
`CCc1ccc(NC(=O)CSc2c(C)cnc3c2c(=O)n(C)c(=O)n3C)cc1` is listed as PINK1 expr mod = 0.2%; TRPML1 agonist = -0.2
`COc1ccc(C(=O)Nc2cc3c(cc2N2CCCC2)n(C)c(=O)c(=O)n3C)cc1OC` is listed as PINK1 expr mod = -2.2%; TRPML1 agonist = 0.2

Additional results follow:
SMILES	PINK1 expr mod	TRPML1 agonist
CCOc1ccccc1NC(=O)C1CCN(S(=O)(=O)c2cc(Br)cc3c2N(C(C)=O)CC3)CC1	1.7%	3.0
CC(C)NC(=O)c1nn(C)c2c1CS(=O)(=O)c1ccccc1-2	1.6%	-0.5
CCn1c(=O)c2cc(C(=O)N(CC(C)C)CC(C)C)sc2c2ccccc21	2.0%	-0.4
COc1ccc(-c2nc3nc(C)cc(Nc4cccc(C(F)(F)F)c4)n3n2)cc1	-0.7%	1.3
Cc1ccc(C)c(N2CCN(C(=O)C3CCCN(S(=O)(=O)c4cccc5nonc45)C3)CC2)c1 (stereo not drawn)	1.1%	0.0
O=C(CSc1nc2c(c(=O)[nH]1)CCC2)Nc1cc(C(F)(F)F)ccc1Cl	1.0%	3.9
O=S(=O)(Nc1ccc(-c2ccc(N3CCCC3)nn2)cc1)c1cccc(C(F)(F)F)c1	-0.3%	0.8
Cc1ccc(-c2cn3c(n2)sc2cc(C(=O)NCCCN4CCCCCC4)ccc23)cc1	3.3%	-0.1
CC(=O)N1CCc2c(sc3c2c(=O)n(CCc2ccccc2)c(=O)n3Cc2ccc(Cl)cc2)C1	2.4%	1.6
O=C(CSc1cn(CC(=O)N2CCOCC2)c2ccccc12)Nc1ccccc1C(F)(F)F	0.5%	-0.2
CCc1ccc(NC(=O)C2CCN(S(=O)(=O)c3c(C)noc3/C=C/c3cccs3)CC2)cc1	-0.8%	-0.3
CN1C(=O)Cc2cc(S(=O)(=O)CCC(=O)Nc3ccc(OC(F)(F)F)cc3)ccc21	0.2%	-0.1
O=C(CCn1c(=O)c2sccc2n(Cc2cccc(F)c2)c1=O)NCc1ccc2c(c1)OCO2	-0.3%	0.0
Cc1ccc(C(c2nnnn2Cc2ccccc2)N2CCN(Cc3ccncc3)CC2)cc1 (stereo not drawn)	-0.8%	-0.7
Cc1ccc(-c2cc3ncc4c(n3n2)-c2cc(C)ccc2OC4)cc1	-0.3%	0.9
Cc1cccc(C(=O)Nc2cccc(OCc3cc(=O)n4cc(C)sc4n3)c2)c1	0.1%	7.6
CCn1c(CN2CCC(C)CC2)nc2cc(NC(=O)c3ccc([N+](=O)[O-])cc3)ccc21	-0.9%	-0.1
CCc1ccc(-n2nc(CO)c(C(=O)NC)n2)cc1	0.0%	1.9
CCOC(=O)C1CCCN(C(=O)CCS(=O)(=O)c2cc3c(cc2Cl)NC(=O)CO3)C1 (stereo not drawn)	0.7%	0.6
Cc1ccc(Cn2c(=O)n(Cc3ccccc3Cl)c(=O)c3cccnc32)cc1	1.1%	-0.6
CCc1ccc(NC(=O)CC2C(=O)N(c3cccc(OC)c3)C(=O)N2C2CCCC2)cc1 (stereo not drawn)	2.3%	0.2
COc1ccc(-c2csc3ncnc(Nc4ccccc4)c23)cc1	0.8%	4.1
CCN(CC)S(=O)(=O)c1ccc(NC(=O)CCc2c(C)nc3cc(-c4ccc(Cl)cc4)nn3c2C)cc1	9.4%	0.5
CCOC(=O)Cc1ccc(NC(=O)Nc2c[nH]c(=O)[nH]c2=O)cc1	1.2%	0.6
CCCc1cc(=O)[nH]c(SCc2nc(-c3ccc(OC)cc3)no2)n1	1.2%	-0.4
Carrying on.
SMILES	PINK1 expr mod	TRPML1 agonist
CCCSC1=NC2(CCN(C(=O)NC3CCCCC3)CC2)N=C1c1ccc(C)cc1	2.5%	-0.1
O=C(c1ccccc1)n1nc(-c2ccccc2)nc1NCc1ccc(F)cc1	5.1%	1.3
COc1ccccc1C(=O)Nc1ccc2oc(-c3cccc(Cl)c3Cl)nc2c1	0.5%	-0.1
O=C(Nc1ccc(F)c(Cl)c1)C1CCN(c2ncccn2)CC1	-0.3%	-0.7
Cn1c(=O)c(=O)n(C)c2cc(NC(=O)c3ccccc3Br)ccc21	1.5%	0.1
Cc1ccc(NC(=O)CSc2nc3c(oc4ccccc43)c(=O)n2Cc2ccco2)cc1	1.7%	-0.7
CCc1ccc(OC(=O)CSc2nnc(-c3ccc4c(c3)OCO4)o2)cc1	0.3%	0.5
Cc1nc(NCC(=O)c2c[nH]c3ccccc23)sc1C	-0.2%	-1.0
COCCNC(=O)CN1C(=O)c2cccnc2Oc2ccc(Cl)cc21	-0.8%	1.2
CNS(=O)(=O)c1cn(CC(=O)N2CCN(c3ccccc3F)CC2)cc1S(=O)(=O)NC	-0.8%	-0.2
Cc1ccccc1NC(=O)Nc1nnc(N2CCCCCC2)s1	0.1%	-0.7
CCN(CC)C(=O)c1sc2c(c1C)c(=O)n(-c1ccccc1)c(=O)n2CC(=O)N(CC)c1cccc(C)c1	0.4%	0.7
COc1cc(Cl)c(C)cc1NC(=O)CCc1nc2cccnc2n1Cc1cccs1	0.1%	3.5
COC(=O)c1sccc1S(=O)(=O)N(CC(=O)Nc1cccc(C)c1C)c1ccc(C)c(C)c1	1.5%	2.6
Cc1ccc(Nc2c(-c3ccc(C)s3)nc3ccccn23)cc1	2.5%&-0.3%	-0.8&2.1
COc1cccc(NC(=O)N2CCC(n3c(C)nc4cccnc43)CC2)c1	-0.7%	-0.2
Cc1ccc2oc3c(c(=O)c2c1)C(c1ccccc1F)N(CCCN1CCOCC1)C3=O (stereo not drawn)	0.4%	0.6
COc1cccc(CNC(=O)CSc2nc(=O)[nH]c3c2CCC3)c1	-0.8%	-0.9
Cn1cc(S(=O)(=O)c2cccc(Cl)c2)c(=O)c2cc(F)c(N3CCCCC3)cc21	22%	1.9
Cc1ccc(CNC(=O)c2cnc(N3CCCC3)nc2C)cc1	0.6%	1.9
O=c1oc2ccc3ccccc3c2cc1-c1nnc(Nc2ccc(F)cc2)s1	0.3%	1.2
O=C(COCc1cc(-c2ccc(F)cc2)on1)Nc1cc(Cl)cc(Cl)c1	3.4%	1.8
Cc1cccc(Cn2c(=O)n(CCCC(=O)NCc3ccccc3Cl)c(=O)c3ccccc32)c1	5.4%	3.5

3 of the entries above in order of the PINK1 expr mod value, low to high:
SMILES	PINK1 expr mod
CNS(=O)(=O)c1cn(CC(=O)N2CCN(c3ccccc3F)CC2)cc1S(=O)(=O)NC	-0.8%
O=C(c1ccccc1)n1nc(-c2ccccc2)nc1NCc1ccc(F)cc1	5.1%
Cn1cc(S(=O)(=O)c2cccc(Cl)c2)c(=O)c2cc(F)c(N3CCCCC3)cc21	22%
